Bioassay records from PubChem BioAssay.
VDR inh = Inhibitors of the vitamin D receptor (VDR): qHTS. Vitamin D3 receptor (Homo sapiens), P11473. VDR-SRC2-3 peptide fluorescence polarization, 2 h. Potency, µM, without a hit: max response, negative = inhibition, most hits filed as inhibitors. actives 0.93% (n = 400,000). AID 504847, 2011; active means well fitted inhibition curve with a large enough effect; inconclusive means small, poorly fitted or top-dose-only effect, or another doubt; inactive means no such curve, though single readings can be large or run the other way; further: series mostly up to about 120 µM
Target sequence (P11473 whole entry, looked up): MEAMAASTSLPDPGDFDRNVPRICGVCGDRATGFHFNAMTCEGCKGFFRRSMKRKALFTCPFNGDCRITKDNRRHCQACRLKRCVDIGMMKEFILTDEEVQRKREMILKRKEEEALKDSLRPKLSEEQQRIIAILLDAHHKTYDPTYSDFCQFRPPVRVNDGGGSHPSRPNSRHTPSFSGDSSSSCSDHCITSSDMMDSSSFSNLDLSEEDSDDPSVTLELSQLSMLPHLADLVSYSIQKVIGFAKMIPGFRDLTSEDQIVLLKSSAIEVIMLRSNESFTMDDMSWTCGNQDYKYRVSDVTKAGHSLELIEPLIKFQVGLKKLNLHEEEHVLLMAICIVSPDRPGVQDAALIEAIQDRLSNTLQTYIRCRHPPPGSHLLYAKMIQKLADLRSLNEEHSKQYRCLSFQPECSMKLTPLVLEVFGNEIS
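Measured by FP: displacement of SRC2-3 coactivator peptide from VDR by library compounds, following a two-hour ambient incubation.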
* marks the source's active call; other numbers are inactive results; & = joins results of further samples. On the % scale 0 is the no-effect control and ±100 the full control effect; potency means the concentration at half of the fitted maximal effect.

Screening Cc1ccccc1-n1c(SCC(=O)NC(N)=O)nc2sc(-c3ccccc3)cc2c1=O returned VDR inh -10%.
`COC(=O)C1CN(C(=O)C(C)Oc2ccccc2Cl)c2ccccc2O1` (centres undefined) gave VDR inh -9%.
Screening Cc1ccc(NC(=O)C(c2ccccc2)N(C)C)cc1Cl (centres undefined) returned VDR inh -10%.
C=CCN1C(=O)C(Cc2ccc(F)cc2)S/C1=N/N=C/c1ccco1 (centres undefined) was read as VDR inh -23%.
Screening COc1ccccc1N1CCN(C(=O)C2CCN(S(=O)(=O)c3ccccc3)CC2)CC1 returned VDR inh -8%.
`COc1cc(C)c(NC(=S)Nc2ccc(C)c(Cl)c2)cc1OC` gave VDR inh -30%.
`Cn1c(SCC(=O)N2CCCC2)nc2cccnc21` gave VDR inh -6%.
COc1cccc(C2c3c(oc4ccc(C)cc4c3=O)C(=O)N2CCCN2CCOCC2)c1OC (centres undefined) was read as VDR inh 2%.
Screening CCCN1CCCc2cc(CN(CCCN3CCOCC3)C(=O)Nc3ccc(OCC)cc3)ccc21 returned VDR inh 12%&8%.
For O=C(Nc1ccc(Cc2nc3ccccc3s2)cc1)c1ccncc1 the results were VDR inh 6%.
`COC(=O)c1ccc(-c2ccc(C(c3c(C)[nH][nH]c3=O)c3c(C)[nH][nH]c3=O)o2)cc1` gave VDR inh 35µM*.
NC(=O)CC(NC(=O)Cc1ccc(Cl)cc1)c1ccc(NCCc2ccccc2F)c([N+](=O)[O-])c1 (centres undefined) was read as VDR inh 4%.
Screening COC(=O)C1=C(N)OC2=C(C(=O)CCC2)C1c1ccc2c(c1)OCO2 (centres undefined) returned VDR inh -3%.
N#Cc1c2n(c3c(=O)n(Cc4ccc(Cl)cc4)cnc13)CCCCC2 was read as VDR inh 4%.
For CCc1cccc(NC(=S)N2CCC(c3ccccc3)C2)c1 (centres undefined) the results were VDR inh 1%.

Among those listed so far, these contain an aryl thioether with sulfur outside any ring:
Screening Cc1ccccc1-n1c(SCC(=O)NC(N)=O)nc2sc(-c3ccccc3)cc2c1=O returned VDR inh -10%.
`Cn1c(SCC(=O)N2CCCC2)nc2cccnc21` gave VDR inh -6%.

Returning to the listing with the three entries that preceded the break.
Screening COC(=O)C1=C(N)OC2=C(C(=O)CCC2)C1c1ccc2c(c1)OCO2 (centres undefined) returned VDR inh -3%.
N#Cc1c2n(c3c(=O)n(Cc4ccc(Cl)cc4)cnc13)CCCCC2 was read as VDR inh 4%.
For CCc1cccc(NC(=S)N2CCC(c3ccccc3)C2)c1 (centres undefined) the results were VDR inh 1%.
`Cc1cc(-c2nc(C)c(C(=O)NNS(=O)(=O)c3ccccc3)s2)no1` gave VDR inh -19%.
Cc1noc(C)c1C(=O)N1CCCC(C(=O)c2ccc(Cl)cc2)C1 (centres undefined) was read as VDR inh 3%.
COC(=O)CCC(=O)Nc1ccc(S(=O)(=O)Nc2cc(OC)nc(OC)n2)cc1 was read as VDR inh 19%.
Screening COC(=O)c1ccc(CN(c2ccc(OC)cc2)S(=O)(=O)c2ccccc2)cc1 returned VDR inh 2%.
`O=C(Nc1nc(-c2ccco2)c(-c2ccco2)s1)C1CCC1` gave VDR inh inconclusive.
CN(C)c1cccc(C(=O)OCC(=O)NCc2ccco2)c1 was read as VDR inh -12%.
`CC(Nc1nc(-c2cccc(Br)c2)cs1)c1nc2cc(Cl)c(N3CCCCC3)cc2n1CCOCCO` (centres undefined) gave VDR inh -9%.
For CCn1ccnc1CN(C)C(=O)c1ccc(OC2CCN(CCc3ccccc3)CC2)cc1 the results were VDR inh -7%.
For OC(CNCCC(c1ccccc1)c1ccccc1)COc1ccccc1 (centres undefined) the results were VDR inh -9%.
COc1ccc(CNC(=O)CN(c2ccc(C)cc2)S(=O)(=O)c2c(C)n[nH]c2C)cc1 was read as VDR inh -18%.
`CCOC(=O)C1CCN(Cc2ccc(OC)c(OCc3ccccc3)c2)CC1` gave VDR inh -2%.
Screening O=C(Nc1cc(Cl)ccc1-n1cncn1)c1cccs1 returned VDR inh -25%.
O=C(COc1ccc(S(=O)(=O)N2CCOCC2)cc1Cl)NCCN1CCOCC1 was read as VDR inh 1%.
Screening COc1ccc(C2C3=C(CCCC3=O)Nc3nc(-c4cc(OC)c(OC)c(OC)c4)nn32)cc1OC (centres undefined) returned VDR inh -11%.
O=C(c1sc2cc(F)ccc2c1Cl)N1CCN(c2ccccc2)CC1 was read as VDR inh -6%.
For CN1CCC(OC(=O)COc2ccc(C(C)(C)C)cc2)CC1 the results were VDR inh 8%.
`CCOc1ccc(C2C(C(N)=O)=C(C)Nc3nc(SCc4ccccc4F)nn32)cc1` (centres undefined) gave VDR inh -5%.
For CCOc1ccccc1NC(=S)N1CCN(c2ccccc2F)CC1 the results were VDR inh -17%.
For CC(=O)OC1CCC2C3CCC4=CC(=O)CCC4(C)C3CCC2(C)[C@]1(C)O (some centres undefined) the results were VDR inh -11%.
CCOc1nc2cnccc2n(CC(=O)Nc2ccccc2C(=O)OC)c1=O was read as VDR inh 6%.
Screening CC1Cc2ccccc2N1CC(=O)Nc1ccc(N2CCOCC2)cc1 (centres undefined) returned VDR inh -13%.
`COC(=O)c1ccc(CNC(=O)CSc2nc3sc(C)c(C)c3c(=O)n2C)o1` gave VDR inh -20%.
Screening CCC(C(=O)OC)n1cnc2c(nnn2-c2cccc(Cl)c2)c1=O (centres undefined) returned VDR inh 1%.
Screening COc1ccc(N(Cc2cc3cccc(C)c3[nH]c2=O)S(C)(=O)=O)cc1 returned VDR inh -2%.
Screening Cc1[nH][nH]c(=O)c1C(c1ccc(F)cc1)c1c(C)[nH][nH]c1=O returned VDR inh -19%.
`Cc1ccccc1/C=C/C(=O)c1ccc([N+](=O)[O-])o1` gave VDR inh 7.9µM*.
Cc1cc(C)c(S(=O)(=O)N2CCN(S(=O)(=O)N3CCOCC3)CC2)c(C)c1 was read as VDR inh 0%.
`COc1ccccc1NS(=O)(=O)c1ccc(C)c(NC(=O)c2c(C)noc2C)c1` gave VDR inh -22%.
Screening Cc1cccc(OCC(O)CN2CCN(c3ccccn3)CC2)c1C (centres undefined) returned VDR inh 3%.
Screening COc1ccc(NC(=O)c2oc3ccccc3c2NC(=O)COc2ccc(C(C)C)cc2)c(OC)c1 returned VDR inh 13%.
For CCc1ccccc1NC1=NCC(=O)N1C1CCCC1 the results were VDR inh -27%.
For Cc1cc(C(=O)OCC(=O)N2CCCC2)c2ccccc2n1 the results were VDR inh -14%.
`N#Cc1ccccc1CSc1nnc(-c2ccc(Br)cc2)o1` gave VDR inh 6%.
Cc1ccc(OCCCCN2CCCCC2)c(Br)c1 was read as VDR inh -1%.
Screening Cc1nc2ccccc2c2nc3ccccc3n12 returned VDR inh 19%.
CCSc1nnc2ccc(-c3cccs3)nn12 was read as VDR inh 22%.
`O=C(Nc1ccc(F)cc1)N1CCN(C/C=C/c2ccccc2)CC1` gave VDR inh -4%.
For Cc1cc(C(=O)Nc2ccncc2)c(C)o1 the results were VDR inh -10%.
`CC(C)c1ccc(/C=N/NC(=O)c2c(Cl)cnn2C)cc1` gave VDR inh -7%.
`Cc1ccc(NC(=S)NNC(C)(C)C)cc1` gave VDR inh -3%.
Screening Cc1ccc2c(c1)-c1nc(-c3ccc4c(c3)NC(=O)CO4)cc(-c3ccc(Cl)cc3)c1CO2 returned VDR inh -1%.
For Cc1ccc(OCC(=O)Nc2cccc3nsnc23)c(C)c1 the results were VDR inh -18%.
`CCCC(=O)Nc1nc2nc(C)cc(=O)n2[nH]1` gave VDR inh 11%.
For NCC(=O)NCC(=O)NC1(C(=O)O)CCCC1 the results were VDR inh 2%.
Screening CC(C(=O)OCC(=O)c1ccc([N+](=O)[O-])cc1)N1C(=O)C2C3C=CC(C3)C2C1=O (centres undefined) returned VDR inh 7%.
For CCOc1ccccc1N(C(=O)c1snc(C(N)=O)c1N)C(C(=O)NCc1ccccc1)c1ccc(O)cc1 (centres undefined) the results were VDR inh 2%.
`Cc1cnc(NC(=O)C2CCCO2)s1` (centres undefined) gave VDR inh 2%.
For Cc1cccc(C(=O)O)c1NC(=O)c1ccc(F)cc1 the results were VDR inh 15%.
Screening Cc1cc(C)n(Cc2cccc(C(=O)N/N=C/c3ccncc3)c2)n1 returned VDR inh 5%.
For Cc1cccc(NC(=O)c2cc(-c3ccc(C)c(C)c3O)n[nH]2)c1 the results were VDR inh 20%.
CC(C)COP(=O)(OCC(C)C)C(O)c1ccc(N(C)C)cc1 (centres undefined) was read as VDR inh 10%.
`Nc1ccc2c(c1)CCC2=O` gave VDR inh 1%.
`Cc1cc2c(ncn2Cc2ccccc2)c([N+](=O)[O-])c1C` gave VDR inh 1%.
`COc1ccc(S(=O)(=O)NCC(c2cccnc2)N2CCN(C)CC2)cc1C` (centres undefined) gave VDR inh -9%.
For COc1ccc(CCN(C)CC(O)COC(c2ccc(F)cc2)c2ccc(F)cc2)cc1OC (centres undefined) the results were VDR inh -8%.
O=C(NCCc1ccccc1)c1ccc2c(c1)N(Cc1ccccc1)CCS2 was read as VDR inh 15%.
COc1ccc(-c2cnnn2-c2ccc(N)cc2)cc1OC was read as VDR inh 3%.
`O=C1NC(Cc2ccc(O)cc2)c2nc3cc(Cl)ccc3c(=O)n2-c2cc(Cl)ccc21` (centres undefined) gave VDR inh -2%.
For CCN1CCSc2ccc(C(=O)NCc3ccc(OC)cc3)cc21 the results were VDR inh -11%.
For CC(=O)Nc1ccc2c(c1)OCCOCCOc1cc(NC(C)=O)ccc1OCCO2 the results were VDR inh 11%.
`CC(C(=O)Nc1cccnc1)N1C(=O)c2ccccc2C1=O` (centres undefined) gave VDR inh 1%.
COc1ccc(CCC(=O)NNC(=O)c2ccc(F)cc2)cc1 was read as VDR inh -24%.
`CCCc1nnc(SCC(=O)NC2CCCC2)n1CCOC` gave VDR inh 6%.
For Cc1ccc(Cc2c(C)nc3nc(SCC(=O)NCCCN4CCCCC4)nn3c2C)cc1 the results were VDR inh -13%.
`Cc1cc2cc3c(cc2nc1SCC(=O)N1CCCC1)OCCO3` gave VDR inh -9%.
`C=CC[C@@H](CC(=O)OC(C)(C)C)C(=O)OC[C@@H]1CCCN1C(=O)[C@@H](CC=C)CC(=O)N(CCO)Cc1ccccc1` gave VDR inh -8%.
For N#CCCN(Cc1ccccc1)C(=S)Nc1ccccc1 the results were VDR inh -18%.
For COC(=O)c1ccc(C(=O)NC(=S)Nc2ccc3nc(SC)sc3c2)cc1 the results were VDR inh 6%.
Screening CCN1CCN(CCCNC(=O)Cn2c(-c3cccs3)cc3cc(F)ccc32)CC1 returned VDR inh 10%.
N#CCN1C(=O)C(=O)N(Cc2cccc(Cl)c2)C1=O was read as VDR inh -16%.
For CCOc1ccccc1NS(=O)(=O)c1ccc2[nH]c3c(c2c1)CCCCC3 the results were VDR inh 3%.
Cc1cc(O)c(C(=O)Cc2csc(C)n2)c(O)c1 was read as VDR inh -11%.
CC(=O)c1cccc(NC(=O)c2ccc(CN3CCc4ccccc4C3)cc2)c1 was read as VDR inh -23%.
Screening COCCn1cc(C(=O)NCCCN2CCC(C)CC2)c2c3ccccc3n(C)c2c1=O returned VDR inh 9%.
Cc1cc(C)nc(Nc2n[nH]c(C)n2)n1 was read as VDR inh 2%.
`CC(=O)N1N=C(c2ccc(NS(=O)(=O)c3ccccc3)cc2)CC1c1ccco1` (centres undefined) gave VDR inh -12%.
NCCCCCc1nnc(SCc2cccc(Cl)c2)o1 was read as VDR inh 1%.
CC1CCCCN1CCCNc1ccc(C(CC(N)=O)NC(=O)Cc2cccc3ccccc23)cc1[N+](=O)[O-] (centres undefined) was read as VDR inh 3%.
COc1ccc(OC)c(C2C3=C(CC(C)(C)CC3=O)Nc3nnnn32)c1 (centres undefined) was read as VDR inh 0%.
Screening CCOc1ccc(C=Nc2cccc3ncccc23)cc1 returned VDR inh 3%.
`Cc1nc(C)c(-c2ccc(SCc3ccc(Cl)cc3)nn2)s1` gave VDR inh -19%.
`COc1cccc(CN(C)C(=O)CSCC(=O)Nc2cc(C)on2)c1OC` gave VDR inh 2%.
`O=C1[C@H]2[C@H](C=CC[C@H]2C(=O)N2CCN(c3ccccc3)CC2)CCN1Cc1ccccc1` gave VDR inh 12%.
`N#Cc1nc(-c2ccc(COc3ccc(Cl)cc3)o2)oc1N1CCN(c2ccccc2)CC1` gave VDR inh 4%.
Screening CCCn1c(SCC(=O)N2c3ccccc3Sc3ccccc32)nc2ccccc21 returned VDR inh 2%.
Cc1cc(C)cc(NC(=O)CCN2CCCC2)c1 was read as VDR inh -2%.
CCCC(=O)NC(=S)Nc1cccc(NC(=O)c2ccccc2Cl)c1 was read as VDR inh -14%.
Screening COc1cc(OC)cc(C(=O)NCC(=O)OCC(=O)NC(C)(C)C)c1 returned VDR inh 1%.
For COc1ccccc1NS(=O)(=O)c1cccc(NC(=O)c2sc3ccccc3c2Cl)c1 the results were VDR inh 16%.
For COc1ccccc1N1C(=O)C2C(c3ccccc3F)NN(C(=O)c3ccc(C)cc3)C2C1=O (centres undefined) the results were VDR inh -7%.
`O=C(Nc1ccc(C(=O)N2CCOCC2)cc1)c1cc(-c2cccnc2)nc2ccc(Cl)cc12` gave VDR inh -12%.

7 structures already listed, arranged by number of heavy atoms, lowest first.
`Cc1nc(C)c(-c2ccc(SCc3ccc(Cl)cc3)nn2)s1` gave VDR inh -19%.
CCCC(=O)NC(=S)Nc1cccc(NC(=O)c2ccccc2Cl)c1 was read as VDR inh -14%.
COc1ccc(OC)c(C2C3=C(CC(C)(C)CC3=O)Nc3nnnn32)c1 (centres undefined) was read as VDR inh 0%.
`COc1cccc(CN(C)C(=O)CSCC(=O)Nc2cc(C)on2)c1OC` gave VDR inh 2%.
`O=C1[C@H]2[C@H](C=CC[C@H]2C(=O)N2CCN(c3ccccc3)CC2)CCN1Cc1ccccc1` gave VDR inh 12%.
`N#Cc1nc(-c2ccc(COc3ccc(Cl)cc3)o2)oc1N1CCN(c2ccccc2)CC1` gave VDR inh 4%.
`O=C(Nc1ccc(C(=O)N2CCOCC2)cc1)c1cc(-c2cccnc2)nc2ccc(Cl)cc12` gave VDR inh -12%.

The list is partial; rates above refer to the full screens.
